# Screens (PubChem BioAssay)
# Lassa entry inh: inhibitors of Lassa virus binding or cell entry; Lassa virus pseudotype entry inhibition, cell reporter; control for the full effect not named in the record; Potency, µM (top dose mostly 37.9 µM), for the others: at the top dose activity change, negative = inhibition, usual class: inhibitors; AID 540256; 300,000 tested, 1.2% active; active means well fitted inhibition curve with a large enough effect; inconclusive means small, poorly fitted or top-dose-only effect, or effect the other way; inactive means flat fitted curve, though single readings scatter; tested in HEK293 cells; also: % is scaled to controls: 0 for no effect and ±100 for the full control effect; nearly all actives have a fitted effect of over 50% in size; luciferase read-out
# MARV entry inh: Marburg virus entry inhibition; 300,000 tested, 1.8% active; Potency, µM (doses to about 37.8 µM), inactives show at the highest dose activity change, negative = inhibition, hits mostly inhibitors; Marburg virus pseudotyped entry inhibition, cell reporter; control for the full effect not named in the record; about a third of the inactives were read at about 46 µM; AID 540276; active = well fitted inhibition curve with a large enough effect; inconclusive = small, poorly fitted or top-dose-only effect, or effect the other way; inactive = flat fitted curve, though single readings scatter; tested in HEK293 cells; about a fifth of its hits are not listed in these tables; also: % is scaled to controls: 0 for no effect and ±100 for the full control effect; luciferase read-out
# Cruzain inh noDet: blocks cruzain activity in detergent-free assay. P25779. purified cruzain, Z-FR-AMC fluorescence, no detergent. Potency, µM, for the others: max response, negative = inhibition, usual class: inhibitors. 200,000 tested, 2.3% active;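 also: plate controls were enzyme without inhibitor for no effect and buffer without enzyme for full effect; nearly all actives have a fitted effect of over 40% in size; top concentration of the series not given in the record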
# Target sequence (P25779 123-467 limits assumed): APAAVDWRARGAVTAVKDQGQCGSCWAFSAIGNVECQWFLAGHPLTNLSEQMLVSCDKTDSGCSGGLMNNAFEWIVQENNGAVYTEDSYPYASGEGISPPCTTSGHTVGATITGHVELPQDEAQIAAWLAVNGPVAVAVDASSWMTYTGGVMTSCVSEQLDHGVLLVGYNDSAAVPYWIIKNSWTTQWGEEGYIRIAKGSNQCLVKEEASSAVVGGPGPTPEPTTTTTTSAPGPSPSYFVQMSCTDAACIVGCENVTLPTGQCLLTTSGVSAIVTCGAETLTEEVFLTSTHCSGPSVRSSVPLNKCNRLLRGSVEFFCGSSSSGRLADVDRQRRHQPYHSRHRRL
#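 Purified cruzain at 1.5 nM, pre-incubated 15 min with compound at room temperature in 100 mM sodium acetate pH 5.5, 5 mM DTT, 0.00005% Triton X-100. Reaction started with 2 uM Z-FR-AMC; AMC fluorescence increase over 60 s gives rate.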
# Cruzain inh Det: cruzain (T. cruzi) inhibition with detergent; purified cruzain, Z-FR-AMC fluorescence, 0.01% Triton; Potency, µM, inactives show max response, negative = inhibition, hits mostly inhibitors; 200,000 tested, 0.43% active; P25779; AID 1478;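 also: plate controls were neutral wells for no effect and buffer without enzyme for full effect; nearly all actives have a fitted effect of over 40% in size; top concentration of the series not given in the record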
#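 Compounds were screened in titration against cruzain (1.5 nM) with 0.01% Triton X-100 to counter colloidal aggregation. Activity was the AMC fluorescence increase over 60 s after adding 2 uM Z-FR-AMC at pH 5.5.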
# SARS PLP yeast: inhibitors of SARS-CoV papain-like protease in yeast; S. cerevisiae expressing SARS-CoV PLpro, growth rescue; control for the full effect not named in the record; Potency, µM (series often up to 32.9 µM), for the others: at the highest dose activity, positive = growth rescue; 330,000 tested, 0.19% active; active means well fitted rising curve with a large enough effect; inconclusive means small, poorly fitted or top-dose-only effect; inactive means no such curve, though single readings can be large or run the other way; also: 0% is about no effect; nearly all actives have a fitted effect of over 55% in size; growth read by luminescence after 48 h
# RE007 growth inh: less growth of the S. pombe RE007 Vpr strain | AID 651644 | Potency, µM (doses to about 92.2 µM), for the others: at the highest dose activity change, negative = less growth | 360,000 tested, 0.21% active | S. pombe RE007 Vpr strain, BacTiter-Glo ATP luminescence, 24 h; control for the full effect not named in the record; active = well fitted falling curve with a large enough effect; inconclusive = small, poorly fitted or top-dose-only effect; inactive = no such curve, though single readings can be large or run the other way;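 also: % is scaled to controls: 0 for no effect and ±100 for the full control effect; nearly all actives have a fitted effect of over 50% in size; the assay follows cell death caused by Vpr and the record does not say whether a fall means rescue or toxicity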
#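 Fission yeast strain RE007, carrying one chromosomally integrated HIV-1 vpr copy, was seeded at OD 0.01 in PMG+AL medium with 23 nL pinned compound. After 24 h at 30 °C and 99% humidity, viability was read by BacTiter-Glo luminescence.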
# NS1 function inh: influenza NS1 inhibition; 270,000 tested, 0.4% active; S. cerevisiae slowed by influenza A NS1, growth recovery by OD600; Potency, µM (doses to about 46.1 µM), inactives show at the top dose activity, positive = more growth; active means well fitted rising curve with a large enough effect; inconclusive means small, poorly fitted or top-dose-only effect; inactive means no such curve, though single readings can be large or run the other way; also: nearly all actives have a fitted effect of over 50% in size
#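 Growth recovery, yeast-based: influenza A NS1 expressed in S. cerevisiae causes slow growth, and suppressors are detected by OD600. The parent strain without NS1 is used as positive control.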
# StopGo reporter: FMDV 2A StopGo reporter, luciferase signal; Potency, µM (titrated, usually from 57.9 µM), without a hit: at the highest dose signal change, negative = less light; 410,000 tested, 1.2% active; human cells with a luciferase reporter of 2A StopGo recoding; control for the full effect not named in the record; active = well fitted falling curve with a large enough effect; inconclusive = small, poorly fitted or top-dose-only effect; inactive = no such curve, though single readings can be large or run the other way; tested in HEK293T cells; also: % is scaled to controls: 0 for no effect and ±100 for the full control effect; nearly all actives have a fitted effect of over 45% in size; luciferase light after 4 h
# * = called active by the depositor; u = inconclusive; x = not tested or not shown; & = joins results of further samples; [ ] = another dose, or the depositor's remark. Unless noted, calls follow the shape of the dose curve; as a rule, active = well fitted curve in the direction sought with a large enough effect; inconclusive = small, poorly fitted or top-dose-only effect, or another doubt; inactive = no such curve, though single readings can be large; an effect the other way counts as inactive or inconclusive. Potency is read from the fitted curve at half-maximal effect. The order is random; overall some 4.6% were active at least once.
SMILES,Lassa entry inh,MARV entry inh,Cruzain inh noDet,Cruzain inh Det,SARS PLP yeast,RE007 growth inh,NS1 function inh,StopGo reporter
CC1(C)N([O-])C(c2ccccc2)=C[N+](=O)C1(C)C,-5%,-2%,-19%,-4.1%,0%,4%,-31%,10%
O=C(CCc1nc2ccccc2c(=O)[nH]1)OCc1nnc(-c2ccccc2)o1,14%,u,-4%,1.2%,-1%,13%,0%,21%
COc1ccc2c(c1)c1c(c(=O)n(Cc3ccccc3)c(=O)n1Cc1cc(C)ccc1C)n2C,u,x,4%,-1.4%,x,x,x,-16%
Clc1ccc(OCCN2CCOCC2)cc1,x,x,x,x,-4%,0%,3%,2%
C=CCSc1ncccc1C(=O)NCCc1ccc(Cl)cc1,u,-6%,x,x,1%,-2%,-11%,-8%
CCN1C(=O)C(C)S/C1=N\S(=O)(=O)c1ccc(F)cc1 (stereo not drawn),10%,0%,7%,-2.4%,12%,5%,11%,-8%
Cc1nc(C)c(C(=O)C2=C(O)C(=O)N(CCCN(C)C)C2c2ccco2)s1 (stereo not drawn),x,x,-6%,2.5%,16%,x,-1%,x
O=c1[nH]c2ccccc2cc1-c1noc(-c2cccnc2)n1,8%,4%,-1%,-1.5%,2%,-14%,5%,18%
Cn1cnnc1SCC(=O)Nc1ccc(Br)cc1F,16%,27%,-13%,2.8%,-2%,1%,0%,15%
Cn1ccnc1SCC(=O)c1c(N)n(C)c(=O)n(C)c1=O,-12%[46.1 µM],6%[46.1 µM],x,x,-9%,-21%,x,-6%
CSCc1ccc(C(=O)NCc2ccc(C)cc2)cc1,u,u,-10%,-4.0%,-1%,-14%,-8%,39%[activator]
N/C(=N\NS(=O)(=O)c1ccccc1C(F)(F)F)c1ccccn1,x,x,x,x,1%,7%,2%,43%[activator]
CCc1nnc(NC(=O)c2ccc(-c3cccc(C(F)(F)F)c3)o2)s1,-27%,-11%,13µM*,-3.0%,12%,-1%,2%,-14%
CCOC(=O)Cn1c(=O)n(CC2CCCO2)c2nc(-c3ccc(OC)cc3OC)nc(C(N)=O)c21 (stereo not drawn),-13%[46.1 µM],x,6%,-4.5%,x,x,x,-24%
CCOC(=O)/C(C#N)=C\c1ccc2c(c1)OCO2,23%,u,x,x,x,-17%,x,79%[activator]
COCCOC(=O)C1=C(C)NC2=C(C(=O)CC(C)(C)C2)C1c1cc2c(cc1Br)OCO2 (stereo not drawn),-23%,-9%,0%,-1.6%,-6%,19%,-8%,x
Cc1ccc(S(=O)(=O)NCc2nc3ccccc3[nH]2)cc1,x,x,6%,-4.5%,2%,1%,-3%,13%
CCCOc1ccc(C(=O)N(Cc2ccc(Cl)cc2)Cc2ccco2)cc1,-18%[46.1 µM],-23%[46.1 µM],-28%,-8.8%,x,x,x,-9%
O=[N+]([O-])c1ccc(C[n+]2cc(-c3ccc(Cl)c(Cl)c3)n3c2CCCCC3)cc1,x,x,x,x,-1%,-11%,0%,-13%
Cc1ccc(C2(C)NC(=O)N(CC(=O)N3CCN(S(=O)(=O)c4cccs4)CC3)C2=O)cc1 (stereo not drawn),19%,u,x,x,-5%,5%,x,-20%
Cc1cccc(C)c1OCC1CNC(=O)O1 (stereo not drawn),12%[46.1 µM],5%[46.1 µM],x,x,-5%,5%,13%,-11%
COc1cc2c(cc1OC)C1(NCC2)C(=O)Nc2ccccc21 (stereo not drawn),7%,1%,7%,4.3%,5%,10%,0%,18%
CC(=O)Cn1cnc2scc(-c3ccc(C)c(C)c3)c2c1=O,x,x,x,x,-1%,17%,-33%,u
Nn1c(SCC(=O)Nc2ccc(F)c(F)c2)nnc1C1CCCCC1,4%,13%[46.1 µM],-3%,0.7%,15%,-9%,-3%,-21%
CNC(=O)c1c(NC(=O)CCS(=O)(=O)c2ccc(F)cc2)sc(C)c1C,-10%,11%,x,x,0%,-2%,x,-29%

# Single values from the list:
# Result of `CCCOc1ccc(C(=O)N(Cc2ccc(Cl)cc2)Cc2ccco2)cc1` under Cruzain inh Det: -8.8%
# Result of `COc1ccc2c(c1)c1c(c(=O)n(Cc3ccccc3)c(=O)n1Cc1cc(C)ccc1C)n2C` under StopGo reporter: -16%

# Next section.
SMILES,Lassa entry inh,MARV entry inh,Cruzain inh noDet,Cruzain inh Det,SARS PLP yeast,RE007 growth inh,NS1 function inh,StopGo reporter
O=C(Nc1cccc(C(F)(F)F)c1)C1(c2ccccc2)CC1,-14%,12%,-6%,-7.6%,17%,2%,-5%,-13%
CCN1CCN(c2nc(Nc3ccc(C)c(C)c3)nc(N)c2[N+](=O)[O-])CC1,-4%,16µM*,3%,-8.9%,-2%,-14%,-5%,2%
Cc1ccc(CS(=O)(=O)Cc2ccc(C(=O)N3CCC4(CC3)OCCO4)o2)cc1,-1%,1%,10%,1.4%,1%,17%,-4%,x
COc1cc(OC)c(NC(=O)Cn2cccc2)cc1Cl,5%,u,0%,-4.9%,-2%,12%,-18%,17%
CCc1cc2c(=O)[nH]c(-c3ccncc3)nc2s1,4%,30%,u,8.9µM*,-2%,2%,-4%,9%
CN1CCN(C(=O)C2CCC(=O)N(Cc3cccc(C(F)(F)F)c3)C2)CC1 (stereo not drawn),11%,12%,x,x,3%,u,12%,-15%
Cc1ccc(NC(=O)c2cc(-c3cccc(O)c3)on2)cc1C,x,x,-14%,-6.6%,-2%,-17%,-36%,36%[activator]
COn1c(-c2ccccc2)nc2ncccc21,18%[46.1 µM],-10%[46.1 µM],x,x,-3%,-15%,0%,1%
O=C1CN=C(c2ccccc2F)c2cc(Cl)ccc2N1,-2%,-52%&-52%,4%,0.0%,2%,-9%[18.4 µM],u,-18%
O=C(CCCN1C(=O)/C(=C\c2cccs2)SC1=S)Nc1ccc(O)cc1,u,u,x,x,0%,41%,-9%,-11%
Cc1ccc(CSc2nc3ccc(NC(=O)COc4ccccc4F)cc3s2)cc1,-7%[46.1 µM],u,19%,-2.0%,x,x,x,-8%
Cc1cc(C)c(Cn2c3ccccc3c3cnn(CC(=O)NCc4cccs4)c(=O)c32)c(C)c1,0%[46.1 µM],-25%[46.1 µM],-15%,-2.2%,x,x,x,1%
COc1ccccc1N1CCN(S(=O)(=O)c2ccc(Cl)cc2)CC1,u,-9%[46.1 µM],x,x,-2%,-5%,-4%,-16%
CC1Cc2cc(/C(O)=C3\C(=O)C(=O)N(Cc4cccnc4)C3c3ccccc3F)ccc2O1 (stereo not drawn),x,x,x,x,-1%,7%,7%,25%
Cc1cccc(NC(=O)Nc2ccc(Br)cc2)n1,u,u,-1%,-1.0%,1%,-11%,-8%,17%&32%
Nc1c(C=C2C=CC(=O)C=C2)c(=O)nc2sc(CC(=O)N3CCCCC3)nn12,x,x,x,x,-2%,-18%,7%,-22%
O=C(COC(=O)c1cccnc1Cl)NC(=O)NC1CCCCC1,5%[46.1 µM],6%[46.1 µM],x,x,u,u,x,-4%
Cc1nnc(SCc2nc3ccccc3s2)n1N,0%,-5%[46.1 µM],x,x,1%,7%,8%,66%[activator]
Cc1nc(C(F)(F)F)c(C(=O)O)cc1-c1nc(-c2ccccc2)cs1,x,x,x,x,2%,-11%,5%,1%
CCOC(=O)c1c(NC(=O)Cn2cnc([N+](=O)[O-])n2)sc(C)c1C,-9%[46.1 µM],-2%[46.1 µM],x,x,-9%,-7%,x,-18%
Cn1c(=O)c2ccccc2n2c(CCC(=O)N3CCN(c4cccc(Cl)c4)CC3)nnc12,x,u,-1%,-0.6%,x,x,x,-10%
C/[N+]([O-])=C\C1C(=O)CC(C)(C)CC1=O,u,18%[46.1 µM],x,x,-1%,-26%,x,-16%
FC(F)(F)c1cccnc1-n1cncn1,x,7%,x,x,1%,-1%,3%,-8%
O=S(=O)(CCc1ccncc1)c1ccc(Cl)cc1,0%,-5%[46.1 µM],x,x,0%,-11%,7%,-18%
COc1cc(/C=N/N=C(N)N)ccc1OCc1ccc(Cl)cc1,u,18µM*,x,x,-1%,9%,5%,-45%
# Further entries
SMILES,Lassa entry inh,MARV entry inh,Cruzain inh noDet,Cruzain inh Det,SARS PLP yeast,RE007 growth inh,NS1 function inh,StopGo reporter
Cc1ccc(-c2nn(CCC(=O)Nc3ccc(Cl)c(Cl)c3)c(=O)c3ccccc23)cc1,-7%[46.1 µM],1%[46.1 µM],-3%,-2.4%,x,x,x,2%
CC1CCN(C(=O)C(Cc2ccccc2)NS(=O)(=O)c2ccc3c(c2)oc(=O)n3C)CC1 (stereo not drawn),x,3%,-10%,8.0%,1%,-1%,0%,21%
COC(=O)Cc1cc(=O)n2[nH]cnc2n1,3%,8%,-9%,-0.8%,6%,4%,6%,10%
CC(C)CNC(=S)NC(=O)c1csc([N+](=O)[O-])c1,22%[46.1 µM],-1%[46.1 µM],x,x,-2%,u,-3%,52%[activator]
CCc1ccccc1N(C)S(=O)(=O)c1ccc2[nH]cc(C(=O)N3CCc4ccccc43)c(=O)c2c1,u,u,13%,-5.5%,-11%,15%,u,u
CC(OC(=O)CCN=C1NS(=O)(=O)c2ccccc21)C(=O)N(C)C1CCCCC1 (stereo not drawn),-15%[46.1 µM],-1%,x,x,1%,2%,x,-7%
COc1ccc(S(=O)(=O)N2CCOCC2)cc1NC(=O)COC(=O)c1ccc(C)s1,0%,1%[14.2 µM],x,x,-1%,4%,x,-4%
O=C(Nc1sc2c(c1C(=O)Nc1cccc(Cl)c1)CCCC2)c1cccs1,4%[46.1 µM],x,-2%,-1.7%,x,x,x,-19%
CSc1ccc(S(=O)(=O)NC2CCCCCC2)cc1,-9%,-28%,0%,8.8%,-21%,13%,-54%,x

# One compound at a time (already shown).
# CSc1ccc(S(=O)(=O)NC2CCCCCC2)cc1 is listed as Lassa entry inh = -9%; MARV entry inh = -28%; Cruzain inh noDet = 0%; Cruzain inh Det = 8.8%; SARS PLP yeast = -21%; RE007 growth inh = 13%; NS1 function inh = -54%; StopGo reporter = x
# COc1ccc(S(=O)(=O)N2CCOCC2)cc1NC(=O)COC(=O)c1ccc(C)s1 is listed as Lassa entry inh = 0%; MARV entry inh = 1%[14.2 µM]; Cruzain inh noDet = x; Cruzain inh Det = x; SARS PLP yeast = -1%; RE007 growth inh = 4%; NS1 function inh = x; StopGo reporter = -4%
